# Beta cell apopt: beta cell apoptosis inhibition; 0.8% of 300,000 active; protection from apoptosis, % (test concentration not listed); INS-1E cytokine-induced death, ATP luminescence, 48 h; percent of positive-control rescue, neutral wells zero;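 active = all replicates at 75% or more, or half of them and the mean; inconclusive = half reach 75% but not the mean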;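 note: 0% = cytokine-treated negative control wells and 100% = positive control rescue; higher means more ATP so stronger rescue from cytokine killing; wells of about 40 µL received 100 nL stock; the first replicate is given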
# AF4-AF9 inh: blocks AF4 peptide binding to human AF9 | P42568 | AlphaScreen, biotin-AF4 peptide binding to FLAG-AF9 | inhibition, % at 10 µM | 0.47% of 350,000 active;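 active = every replicate reaching a set inhibition limit, whatever the replicate mean, cut at about 25% in these data; inconclusive = mean inhibition reaches that limit but some replicates miss it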;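 note: 0% = plate neutral control median and 100% = total signal loss; the record names both 10 and 1 µM as test concentration; the first replicate is given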
# Target sequence (P42568 whole entry, looked up): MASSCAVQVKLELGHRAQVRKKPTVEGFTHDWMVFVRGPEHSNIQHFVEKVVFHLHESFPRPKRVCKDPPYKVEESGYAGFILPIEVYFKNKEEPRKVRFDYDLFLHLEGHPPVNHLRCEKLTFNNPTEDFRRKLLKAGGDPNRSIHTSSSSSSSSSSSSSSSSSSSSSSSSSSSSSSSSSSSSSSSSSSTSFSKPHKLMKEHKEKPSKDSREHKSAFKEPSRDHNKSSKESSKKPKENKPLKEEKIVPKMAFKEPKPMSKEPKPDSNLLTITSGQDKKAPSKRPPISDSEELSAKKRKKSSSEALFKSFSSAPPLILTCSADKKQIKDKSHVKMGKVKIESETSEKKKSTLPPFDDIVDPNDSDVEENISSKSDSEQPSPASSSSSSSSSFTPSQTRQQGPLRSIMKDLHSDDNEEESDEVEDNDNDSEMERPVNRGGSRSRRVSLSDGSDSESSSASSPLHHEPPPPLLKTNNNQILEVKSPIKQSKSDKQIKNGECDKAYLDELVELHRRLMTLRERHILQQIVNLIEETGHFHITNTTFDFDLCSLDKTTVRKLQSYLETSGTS
# rRNA inh HTS: selective bacterial rRNA inhibition in E. coli; E. coli WT GFP vs humanized-ribosome RFP mutants, fluorescence, 24 h; hits give low values; DMSO median 0, no signal -100; 1.6% of 350,000 active; GFP signal change (wild-type ribosome), % (no concentration beside the values);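 active = significant combined selectivity score with lowered wild-type GFP, culture density cut under 30%, mutant RFP and density less affected; inactive = any of these conditions unmet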; note: one replicate is shown; some compounds called inactive have numbers as strong as hits
# Ecoli growth: E. coli growth inhibition; Escherichia coli growth, OD600, 23 h; hits give low values; OD600 absorbance (test concentration not listed); 0.21% of 330,000 active;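 active = OD600 absorbance below the run mean of sample wells minus 3.6 SD, in any replicate, cut at about 0.56 in these data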;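 note: stock transfer was 300 nL into about 60 µL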
# T cruzi repl: T. cruzi replication inhibition | T. cruzi beta-gal in NIH3T3, luminescence, 90 h | inhibition, % (no concentration beside the values) | 1.4% of 300,000 active;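 active = mean inhibition across valid replicates above about 55%, limit read from the data; inconclusive = mean below that limit but half or more replicates reach it; inactive = mean below it, under half of replicates reach it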;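 note: signal also drops with host cell toxicity which is not excluded here; 0% = plate median of DMSO wells and 100% = zero luminescence signal; higher percent means less beta-gal luminescence so fewer parasites; stock transfer was 50 nL into about 50 µL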
# UCH37 inh: inhibitors of human deubiquitinating enzyme UCH37. Q9Y5K5. purified proteasome/UCH37, Ub-AMC cleavage fluorescence. inhibition, % (no concentration beside the values). 0.33% of 330,000 active. AID 588478;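 active = mean of two replicates above 20%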;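 note: 0% = compound-free wells with enzyme and 100% = wells lacking proteasome; stock transfer was 100 nL into about 20 µL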
# Target sequence (Q9Y5K5 whole entry, looked up): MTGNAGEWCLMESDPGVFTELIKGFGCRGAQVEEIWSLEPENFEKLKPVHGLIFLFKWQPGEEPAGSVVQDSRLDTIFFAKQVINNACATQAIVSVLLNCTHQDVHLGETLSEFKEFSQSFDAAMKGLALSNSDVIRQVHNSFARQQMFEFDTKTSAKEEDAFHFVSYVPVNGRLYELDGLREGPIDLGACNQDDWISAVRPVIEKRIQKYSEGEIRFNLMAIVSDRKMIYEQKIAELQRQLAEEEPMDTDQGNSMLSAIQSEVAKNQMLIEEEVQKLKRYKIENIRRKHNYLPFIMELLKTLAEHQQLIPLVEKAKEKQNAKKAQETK
#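 system = Proteasome-associated human UCH37 deubiquitinase | amount = 0.15 nM proteasome as dispensed | medium = pH 7.4 Tris-HCl (50 mM) with ovalbumin, ATP-MgCl2, DTT | incubation = 30 min preincubation with enzyme, 25 min cleavage at room temperature | detection = AMC fluorescence 355/460 nm | read-out basis = percent inhibition | controls = no-proteasome and no-compound wells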
# FGF22 binding: FGF22 (human) thermal shift binding | recombinant FGF22 thermal shift, SYPRO orange fluorescence; percent of sucrose octasulfate shift, DMSO zero | calls only at 9.99 µM | 1.5% of 340,000 active | AID 651658;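 active = melting point raised past a set limit in the mean and every replicate; inconclusive = no clear call; three in four hits are not shown here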
# Bfl-1 A1 inh: inhibitors of the anti-apoptotic protein A1, read as caspase activation; MEF A1-2A-BIM cells, Caspase-Glo 3/7 luminescence, 3 h; percent of clofoctol response, vehicle zero; caspase activation, % (no concentration beside the values); 0.066% of 330,000 active;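 active = over half of replicate activation scores above 10%, or exactly half above 10 with the replicate mean above 10; inconclusive = replicate mean below 10 yet half the replicates above 10; inactive = over half of replicates below 10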;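 note: wells of about 30 µL received 50 nL stock; many hits fall short of the cut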
# rRNA inh HTS OD600: further read-out of rRNA inh HTS, marked with its call; OD600 change, %; measured here: OD600 growth;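 optical density of the mix in the first replicate; 0 = DMSO median and -100 = no signal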
# rRNA inh HTS RFP: second read-out of rRNA inh HTS, no call of its own (marks repeat the call); RFP signal change, %; measured here: RFP humanized mutant strains;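 first replicate; 0 = DMSO median and -100 = no signal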
# Numbers without * were called inactive; i = inactive; u = inconclusive; x = no result given. Not all compounds are listed, so the mix of outcomes need not match the whole.
smiles,Beta cell apopt,AF4-AF9 inh,rRNA inh HTS,rRNA inh HTS OD600,rRNA inh HTS RFP,Ecoli growth,T cruzi repl,UCH37 inh,FGF22 binding,Bfl-1 A1 inh
Cc1ccnc(OC(C(=O)O)C(OCc2ccccc2)(c2ccc(F)cc2)c2ccc(F)cc2)n1 (centres undefined),8,-5.1,-5,-9,2.6,0.65,3,5.6,i,-0.1
COc1ccccc1C(=O)NCc1ccc2c(c1)OCO2,4,-1.0,0,-1,-2.3,0.68,-2,5.1,i,-1.0
O=C1OCC2=C1C(c1ccc(F)cc1)Sc1ccccc1N2 (centres undefined),0,2.9,-26,-32,0.5,0.7,-38,4.0,i,-0.6
COc1ccc(-n2c(=S)[nH]c3c(sc(=S)n3-c3ccccc3)c2=O)c(OC)c1,-10,1.1,4,7,1.4,0.69,-5,11,i,-0.3
Cc1ccccc1NC(=O)c1ccccc1NC(=O)CCC(=O)O,0,x,x,x,x,0.72,-6,2.5,x,0.6
CCOC(=O)C1=C(C)N(CCCC(=O)O)C(=O)NC1c1ccccc1OS(=O)(=O)c1ccc(C)cc1 (centres undefined),-6,x,x,x,x,0.67,x,0.8,x,u
CN1CCN(C(=O)c2cccc(S(=O)(=O)N3CCCCC3)c2)CC1,-5,x,x,x,x,0.66,-1,4.1,x,0.7
CCOC(=O)C1CCCN(Cc2cccc(Cl)c2)C1 (centres undefined),-1,x,x,x,x,0.63,37,4.8,x,-2.4
CCOc1cc(S(=O)(=O)NCc2ccco2)c(OCC)cc1-n1cnnn1,1,-1.1,7,-7,1.7,0.69,11,-32,i,-0.1
Cn1c(=O)c(C(=O)NCc2ccccc2Cl)c(O)c2ccccc21,x,-10,2,5,8.7,0.71,-29,-2.3,i,-0.1
O=C(CN1CCN(c2nc(-c3ccccc3)cs2)CC1)Nc1ccc2c(c1)OCO2,x,x,x,x,x,0.65,28,3.8,x,0.1
O=Cc1cccn1-c1cccnc1,-2,-2.4,17,7,1.2,0.7,-18,3.9,i,-0.2
CC(C)(C)NC(=O)NC(=O)COC(=O)c1c(F)cccc1Cl,-5,-1.8,1,-1,6.0,0.68,-8,3.8,i,0.5
CS(=O)(=O)N(CC(=O)N1CCN(c2ccccc2F)CC1)c1cccc(C(F)(F)F)c1,-2,-33,-5,-9,3.8,0.68,-7,1.0,i,-0.3
O=C(/C=C/c1cccc([N+](=O)[O-])c1)OCC1CCCO1 (centres undefined),-11,-1.6,11,11,0.8,0.69,-18,1.8,i,-0.1
O=C(CC(c1ccccc1)c1cc(Br)ccc1O)NCc1ccco1 (centres undefined),0,x,x,x,x,0.73,2,5.4,x,0.8

# Brought forward from above: 2 entries, followed by the next part.
smiles,Beta cell apopt,AF4-AF9 inh,rRNA inh HTS,rRNA inh HTS OD600,rRNA inh HTS RFP,Ecoli growth,T cruzi repl,UCH37 inh,FGF22 binding,Bfl-1 A1 inh
O=C(/C=C/c1cccc([N+](=O)[O-])c1)OCC1CCCO1 (centres undefined),-11,-1.6,11,11,0.8,0.69,-18,1.8,i,-0.1
O=C(CC(c1ccccc1)c1cc(Br)ccc1O)NCc1ccco1 (centres undefined),0,x,x,x,x,0.73,2,5.4,x,0.8
Cc1cccc(NC(=S)N=Nc2c(O)n(CN3CCOCC3)c3ccccc23)c1C,33,x,x,x,x,0.71,50,7.1,x,0.5
O=C(O)CCC(=O)N1CCN(Cc2ccc3c(c2)OCO3)CC1,-29,0.8,-2,14,-1.1,x,-7,x,i,1.3
Cc1c(Cc2ccccc2)sc(NC(=O)c2ccco2)c1C(N)=O,-3,x,x,x,x,0.73,8,-298,x,-1.0
Cc1cccc(OCCC(=O)NNC(=O)Cn2nc(C)cc2C)c1,2,-1.1,7,16,2.2,0.71,x,2.3,i,-0.6
O=C(N/N=C/c1ccccc1)c1ccc2c(c1)OCO2,0,0.5,13,17,0.4,x,2,x,i,-6.9
O=C(Cc1ccc(F)cc1)Nc1ccc(S(=O)(=O)N2CCCCC2)cc1,x,1.2,-36,-50,4.7,0.66,9,4.4,i,-0.4
O=C(C1CCCN1S(=O)(=O)c1cccc2cccnc12)N1CCc2ccccc21 (centres undefined),0,0.4,1,-7,2.3,0.74,12,5.9,i,0.2
COc1ccc(/C=C(/C(=O)N2CCCCC2C(=O)O)c2ccc(OC)c(OC)c2)cc1 (centres undefined),x,-6.8,4,2,3.2,x,x,-0.4,i,x
O=C1CCCC(O)=C1C(C#Cc1ccccc1)C1=C(O)CCCC1=O,x,x,x,x,x,0.64,1,3.2,x,1.5
CCC(C(=O)Nc1nc(C)c(C)s1)c1ccccc1 (centres undefined),3,6.1,-26,-18,-3.1,0.62,12,3.2,i,0.1
CCOCCCNS(=O)(=O)c1ccc(OC)c(Cl)c1Cl,-1,x,x,x,x,0.69,-4,0.3,x,0.5
NC(=O)Cn1nnc(-c2ccc(NC(=O)c3ccc(F)cc3)cc2)n1,-4,-2.9,11,7,2.6,0.74,-5,7.5,i,-2.2
COc1cc(C(c2c(C)[nH][nH]c2=O)c2c(C)[nH][nH]c2=O)cc(Cl)c1O,x,1.4,-5,5,0.5,0.71,-16,3.1,i,-0.9
O=C(COC(=O)c1ccccc1Nc1ccccc1)c1ccccc1,5,x,x,x,x,0.69,1,0.9,x,0.0
CC(NC(=O)CN1C(=O)NC(c2ccccc2)(c2ccccc2)C1=O)c1cccs1 (centres undefined),-2,0.0,-13,-9,-0.5,0.64,x,2.0,i,0.0
COc1ccc(C(=O)OCC(=O)Nc2ccc3[nH]c(=O)[nH]c3c2)c(OC)c1OC,x,-0.7,-3,1,-1.9,0.67,-7,0.2,i,0.8
C=CCn1ccc(=NC=C(C#N)C#N)c2ccccc21,-2,0.4,55,18,0.2,x,-1,x,x,0.4
COC(=O)[C@H](CC(C)C)NC(=O)CCc1nnc(COc2ccccc2)o1,-2,-0.8,6,5,2.7,0.66,-18,-1.6,i,0.2
NC(=O)C[C@@H]1NC(=O)[C@H](CCC(=O)O)NC(=O)c2cc([N+](=O)[O-])cc(I)c2OCC[C@@H](C(N)=O)NC1=O,-11,x,x,x,x,x,-5,2.4,x,0.0
CC1CCC(NC(=O)CN2C(=O)C3CC=CCC3C2=O)CC1 (centres undefined),-7,-0.1,3,3,-2.9,0.71,x,1.9,i,1.2
Cc1[nH]c(=O)[nH]c(=O)c1S(=O)(=O)Nc1ccc(Br)cc1F,-6,-1.2,13,-2,2.0,0.71,-12,2.9,i,-0.2
CC(C)Cc1ccc(S(=O)(=O)Nc2ccccn2)cc1,-13,14,6,5,1.7,0.7,-5,1.9,i,-0.8
CCOC(=O)C(=CNNc1ccsc1C(=O)OC)C(=O)OCC,-8,-0.8,-7,-1,-1.4,0.68,-15,6.2,i,-0.3
CN(C)S(=O)(=O)N(CC(=O)N1CCN(c2ccccc2)CC1)c1ccccc1,-6,0.0,1,-3,1.7,0.7,-8,5.0,i,0.1
CCCc1nc(SCC(=O)NCc2ccco2)c2c(=O)n(C)c(=O)n(C)c2n1,-2,-6.0,7,5,1.0,0.75,-14,-0.2,i,-1.5
O=[N+]([O-])c1ccc(N(CC(O)CN2CCCCC2)S(=O)(=O)c2ccccc2)cc1 (centres undefined),-3,6.2,2,4,-2.7,0.69,-51,1.9,i,-0.1
COc1ccc(CCNc2c(N)n(Cc3ccccc3)c(=O)[nH]c2=O)cc1OC,x,x,x,x,x,0.74,-1,3.1,x,-0.8
O=C(CCCc1ccccc1)N1CCc2ccccc21,x,-12,2,1,0.0,0.67,-7,2.8,i,-3.4
CCOc1ccc(NC(=O)C2CCN(S(=O)(=O)c3cccnc3)CC2)cc1,x,6.6,-2,0,-8.9,0.66,2,1.2,i,-0.7
NC(=O)COC(=O)c1cccc(NS(=O)(=O)/C=C/c2ccccc2)c1,-3,10,-9,-4,1.9,0.65,-4,1.5,i,1.2
COCC(C)n1c(SCC(=O)NC2CCCCC2C)nc2ccccc2c1=O (centres undefined),-4,0.0,-10,-32,-5.8,0.71,x,1.9,i,0.2
Cc1ccccc1CN1CCN(C2CCC2)CC1CCO (centres undefined),x,6.2,2,4,-3.6,0.63,-14,3.9,i,0.8
COc1ccc(C(=O)Nn2c(C3CCC3)nc3ccccc3c2=O)c(OC)c1,-6,8.0,13,6,2.3,0.66,x,1.1,i,0.3
COc1ccccc1NS(=O)(=O)c1cc2c3c(c1)CCN3C(=O)CC2,1,-8.7,3,9,-0.7,0.62,3,1.3,i,0.4
CCc1ccc(OCC(=O)Nc2ccc(N3CCN(C(=O)c4ccccc4)CC3)cc2)cc1,x,0.5,-1,4,0.9,0.73,3,1.9,i,0.6
COC(=O)c1cnc(N)s1,x,3.1,9,15,2.1,0.7,x,2.9,x,x
Cc1ccc(NC(=O)CCN2CCCCC2)cc1,-6,-0.6,8,11,4.4,0.67,-10,-0.9,i,0.9
CCC(=O)Nc1cccc(-c2nnc(SCC(=O)c3ccccc3)n2C)c1,-2,x,x,x,x,0.71,-9,3.2,x,-4.6
O=C(COc1ccc(Cl)cc1Cl)NC1CCSC1=O (centres undefined),-3,x,x,x,x,0.79,-11,1.6,x,-0.5
CC1CCCC(C)N1C(=O)Cn1nnc(-c2ccc([N+](=O)[O-])cc2)n1 (centres undefined),1,0.6,8,7,-9.9,0.72,-7,5.8,i,0.5
O=C(CSc1n[nH]c(-c2ccccn2)n1)Nc1ccccc1F,x,-0.5,-39,-70,-15,0.63,-16,4.8,i,-0.2
Cc1cc(C(=O)NNC(=S)NCc2ccccc2)cs1,x,x,x,x,x,0.69,-2,-1.6,x,0.4
CCCCCCC(C)n1cc(C(C)=O)c(=O)n(C)c1=O (centres undefined),-2,0.0,-3,-1,-4.9,0.7,-4,4.7,i,0.0
CCC1C/C(=C/c2cccs2)C(=O)/C(=C/c2cccs2)C1 (centres undefined),3,x,x,x,x,0.65,9,9.6,x,0.7
CC(C)(C)C(=O)NC(=S)NNC(=O)c1ccc(Cl)cc1Cl,30,-7.4,-12,5,11,0.65,15,-0.2,i,0.0

# 3 compounds from above, arranged by their value in rRNA inh HTS OD600, high to low.
mol	rRNA inh HTS OD600
CC(C)(C)C(=O)NC(=S)NNC(=O)c1ccc(Cl)cc1Cl	5
CCCCCCC(C)n1cc(C(C)=O)c(=O)n(C)c1=O (centres undefined)	-1
O=C(CSc1n[nH]c(-c2ccccn2)n1)Nc1ccccc1F	-70

# Screening data as filed in PubChem.
